GALR2 ag – GALR2 (human) receptor agonism; GALR2-expressing cells, agonist activation read-out; activation, %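 (tested at 5 µM)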; 0.48% of 140,000 active;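 active = above mean plus 3 SD of all compounds, about 5% in these data, not always enough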;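 also: 0% = vehicle buffer wells and 100% = reference agonist at full effect; tested in CHO reporter cells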
Insulin prom inh – TRM-6 insulin promoter activity inhibition | TRM-6 cells (human fetal islet line), insulin promoter-eGFP reporter, imaging; reporter expression induced with tamoxifen | inhibition, % at 2 µM | 0.9% of 130,000 active | AID 1273;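 active = inhibition above the mean plus 3 SD, with well images judged a real hit on visual review, cut at about 60% in these data, passing the limit was not always enough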
RGS16-Gao – modulates binding between human RGS16 and Galphao. O15492+P09471. bead-based flow cytometry RGS16-Galphao binding, fluorescence; actives lie on both sides. binding response (% of control), % at 10 µM. 0.38% of 220,000 active;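 active = below 25% or above 175%, edge rows of some plates excepted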;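 also: Galphao activated by GDP with aluminum fluoride before binding; 100% = wells without compound and 0% = beads without RGS; some results beyond the cut were filed as inactive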
PKD1 inh – blocks activity of human protein kinase D1; inhibition, %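 (about 10 µM by stock and volumes)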; PKD1 kinase fluorescence polarization assay; 0.056% of 200,000 active; AID 797; Q15139;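 active = inhibition of 50% or more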;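 also: controls were vehicle for no effect and a reference inhibitor for full effect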
Target sequence (Q15139 whole entry, looked up): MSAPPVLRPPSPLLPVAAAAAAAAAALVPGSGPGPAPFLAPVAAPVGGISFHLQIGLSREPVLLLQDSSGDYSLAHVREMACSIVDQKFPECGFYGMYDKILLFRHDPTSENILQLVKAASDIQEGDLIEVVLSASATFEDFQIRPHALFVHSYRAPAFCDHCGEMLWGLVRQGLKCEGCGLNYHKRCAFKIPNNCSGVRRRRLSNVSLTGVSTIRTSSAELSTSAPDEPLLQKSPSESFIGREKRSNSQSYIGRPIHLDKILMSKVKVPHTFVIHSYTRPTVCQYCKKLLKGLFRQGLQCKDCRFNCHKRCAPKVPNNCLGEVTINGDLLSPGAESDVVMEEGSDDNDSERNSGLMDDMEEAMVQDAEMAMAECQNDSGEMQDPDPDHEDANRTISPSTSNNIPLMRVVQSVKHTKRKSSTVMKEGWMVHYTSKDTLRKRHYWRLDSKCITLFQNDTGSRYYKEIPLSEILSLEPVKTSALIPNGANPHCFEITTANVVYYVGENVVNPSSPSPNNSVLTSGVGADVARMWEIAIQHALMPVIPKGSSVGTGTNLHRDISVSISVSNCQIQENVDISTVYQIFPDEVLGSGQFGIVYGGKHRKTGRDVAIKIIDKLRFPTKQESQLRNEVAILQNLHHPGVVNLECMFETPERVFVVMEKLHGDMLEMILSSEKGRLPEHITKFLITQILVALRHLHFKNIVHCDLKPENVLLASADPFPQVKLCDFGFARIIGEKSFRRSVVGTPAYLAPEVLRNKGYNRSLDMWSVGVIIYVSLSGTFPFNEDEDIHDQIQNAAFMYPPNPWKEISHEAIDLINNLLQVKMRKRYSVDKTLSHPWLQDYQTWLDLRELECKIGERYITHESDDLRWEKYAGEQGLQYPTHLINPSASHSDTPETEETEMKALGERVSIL
HSV replic up – HSV replication enhancement; AID 1956; 0.005% of 220,000 active; HSV replication augmentation in cells, fold increase; maximum fold increase;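 active = peak rise of 1.5-fold or more in the series; tested in PC3 cells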;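 also: first round at 10 µM; read as green reporter fluorescence; hits show the peak of a series up to 25 µM; 1 = signal of infected wells without compound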
Insulin prom inh cell count – recorded beside Insulin prom inh, whose call it bears; normalized cell count, %; measured here: cell count, toxicity; reference of the scale not given here;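 cells exposed to compound for 48 h; stained nuclei by imaging scaled within each plate; lower means fewer cells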
HSV replic up primary fold – also measured in HSV replic up; calls as there; fold increase; compound at 10 µM; measured here: primary screen fold increase 10 uM; tested in PC3 cells;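 GFP signal in the first replicate; 1 = infected wells without compound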
* marks the source's active call; other numbers are inactive results; i = inactive; · = no result given.

Molecule	GALR2 ag	Insulin prom inh	Insulin prom inh cell count	RGS16-Gao	PKD1 inh	HSV replic up	HSV replic up primary fold
CC(=O)N1CCN(CC(=O)Nc2cccc(S(=O)(=O)N3CCCCCC3)c2)CC1	·	38.5	106.7	103.4	2.1	i	1.04
COc1ccc(NC(=O)C2CC(=O)N/C(=N/N=C/c3ccccc3)S2)cc1 (centres undefined)	·	·	·	93.5	·	i	0.83
Cc1c(NC(=O)CN2C(=O)c3ccccc3S2(=O)=O)c(=O)n(-c2ccccc2)n1C	-4.1	-67.1	142.0	86.8	-0.2	i	0.84
Cn1c(N)c(C(=O)COC(=O)C23CC4CC(CC(C4)C2)C3)c(=O)n(C)c1=O	2.2	3.9	84.7	102.4	-1.4	i	0.92
Cc1ccc(N(CC(=O)Nc2ccc(C)cn2)S(=O)(=O)c2c(C)nn(C)c2C)cc1	-1.1	·	·	67.4	-6.0	i	0.76
O=C(CCCCl)NC(=S)Nc1ccc(CN2CCOCC2)cc1	·	·	·	101.2	·	i	0.97
Cc1cccc(C(=O)Nc2sc(C)c(-c3ccccc3)c2C#N)c1	-1.3	50.0	103.0	84.6	0.0	i	0.963
CCOC(=O)CC1C(=O)NCCN1C(=O)c1ccc(F)cc1F (centres undefined)	-1.8	16.7	110.2	10.6	8.7	i	1.02
NS(=O)(=O)c1ccc(S(=O)(=O)N(Cc2ccccc2F)CC2CCCO2)cc1 (centres undefined)	-1.4	·	·	88.5	-5.2	i	0.92
O=C(NC1CCCCC1)C1c2ccccc2C(=O)N1Cc1ccco1 (centres undefined)	-1.4	·	·	99.8	-1.3	i	1.06
COc1cc(CC(=O)OCn2nnc3ccccc3c2=O)cc(OC)c1OC	·	·	·	103.4	-3.0	i	1.02
CCN(CC)S(=O)(=O)c1ccc2oc(C(=O)Nc3ccc(OC)cc3OC)c(C)c2c1	-2.0	-84.6	87.9	100.4	-10.2	i	0.98
COC(=O)C1=C(C)NC2=C(C(=O)CCC2)C1c1cccc(C)n1 (centres undefined)	1.5	18.5	59.1	96.5	-1.7	i	0.8
CCCNC(=O)/C=C/C(=O)O	·	-18.2	105.6	105.1	6.1	i	1.02
COc1ccc(/C=C(\C#N)C(=O)OCC(=O)NCc2ccccc2)cc1	-2.2	13.3	53.0	99.8	-5.0	i	1.03
Cn1c(=O)[nH]c(NC2CCCCC2)c([N+](=O)[O-])c1=O	-0.8	42.1	59.7	116.4	-17.2	i	1.08
Cc1ccc(C(C#N)c2ccc(C(=O)c3ccc(F)cc3)cc2)cc1 (centres undefined)	-4.5	-9.4	126.4	103.0	-5.4	i	1.02
COc1ccc(NC(=O)c2cccnc2SC)cc1OC	·	·	·	100.1	3.5	i	1.27
COc1ccc(OC)c(/C=C(\NC(=O)c2ccccc2)C(=O)N/N=C/c2ccc(C)s2)c1	-3.2	·	·	101.3	4.3	i	0.95
Cc1ccc(S(=O)(=O)N(C)C)cc1NC(=O)c1cccnc1Oc1ccccc1	·	·	·	103.6	·	i	0.99
Cc1ccc(OCc2n[nH]c(=S)n2-c2ccc(C)cc2)cc1	·	·	·	92.5	-3.4	i	1.18
COc1ccc(C(=O)Nc2c(Cl)cc(Cl)cc2C(=O)N2CCC(C)CC2)cc1	-1.3	25.9	98.1	104.3	-6.2	i	0.97
CCOC(=O)CSc1nnc(-c2ccc3ncccc3c2)n1C	·	·	·	108.5	·	i	1.02
CCCCn1c(SCC(=O)/C(C#N)=C(\C)N)nc2ccccc2c1=O	0.7	28.1	176.2	100.0	22.1	i	0.91
O=C(O)c1ccccc1C1Nc2ccccc2C(=O)N1CCCN1CCOCC1 (centres undefined)	·	·	·	99.5	·	i	1.13
CCCOc1ncnc2c1[nH]c1ccc(OC)cc12	·	·	·	94.4	·	i	1
CCCCC(CC)C(=O)Nc1cc([N+](=O)[O-])ccc1F (centres undefined)	·	-18.2	38.3	105.0	-1.8	i	0.95
CCOC(=O)Nc1ccc(S(=O)(=O)N2CCOCC2)cc1	1.2	·	·	99.5	-8.5	i	0.77
CC1CC2=C(NC(=S)NC2c2ccc(F)cc2)/C(=C/c2ccc(F)cc2)C1 (centres undefined)	1.4	-17.8	106.1	106.4	-5.7	i	0.91
C/C=C(\C)C(=O)NCCN1C2=NC[C@@H](C)N2C[C@@H]1Cc1ccc(OC)cc1	·	·	·	98.4	-4.1	i	0.93
NC(=O)c1c(NC(=O)CSc2nc(N)cc(=O)[nH]2)sc2c1CCCC2	·	·	·	89.9	·	i	0.97
C/C(CC1(O)/C(=N/O)CCc2nonc21)=N\O (centres undefined)	-0.5	·	·	99.4	-1.2	i	0.97
Cc1ccccc1OCC(=O)N/N=C/c1cccc(Oc2ccc([N+](=O)[O-])cc2[N+](=O)[O-])c1	-1.1	-22.6	142.3	101.3	-5.6	i	0.72
C/C(CC(=O)Nc1ccccc1[N+](=O)[O-])=N\NC(=O)COc1ccccc1C	-3.5	6.7	73.9	97.3	-7.3	i	0.99
CC(=O)Nc1cccc2ncccc12	0.0	6.7	72.1	93.6	-4.7	i	0.93
C/C(=N\Nc1ccc(S(N)(=O)=O)cc1[N+](=O)[O-])c1ccc2c(c1)OCO2	·	-15.0	105.9	99.0	1.9	i	0.66
Clc1cccc(Cl)c1Cn1nnc(N2CCCC2)n1	·	·	·	104.8	·	i	1.11
CC1=C(C(=O)Nc2ccc(C)cc2)C(c2ccco2)NC(=O)N1 (centres undefined)	-1.8	-19.1	76.2	99.6	-5.0	i	1.13
Cc1ccc(CNC(=O)COC(=O)C2CCN(S(=O)(=O)c3cccs3)CC2)cc1	·	·	·	106.8	10.2	i	1.05
COc1ccccc1NC(=O)NCc1ccco1	·	28.6	111.1	104.2	-2.6	i	0.98
CC[n+]1c(/C=C(\C)OC)sc2ccccc21	·	-85.7	94.6	110.3	5.7	i	1.17
O=C(Cc1ccccc1[N+](=O)[O-])NCc1ccc2c(c1)OCO2	-1.7	16.7	75.1	32.4	-0.7	i	0.97
FC(F)(F)c1cccc(Oc2nc(-c3ccccc3)nnc2C(F)(F)F)c1	-0.6	20.0	59.1	100.3	7.5	i	0.72
CS(=O)(=O)N(CC(=O)N1CCN(c2ccccc2F)CC1)C1CCCCC1	-1.6	17.1	70.6	70.8	-1.7	i	1.02
CCOC(=O)c1c(NC(=O)CCC(=O)N2CCOCC2)sc2c1CC(C)(C)OC2	0.1	-14.3	124.0	103.4	2.8	i	1.02
Cc1nn(-c2ccccc2)c(Cl)c1C1C(C#N)=C(N)OC2=C1C(=O)CCC2 (centres undefined)	-0.6	·	·	99.4	-4.0	i	0.92
COC(=O)Cn1cnc2c1c(=O)n(C)c(=O)n2C	-0.3	-295.2	66.8	45.0	-4.7	i	0.92
c1ccc2nc3[nH]cnc3nc2c1	-1.7	12.5	51.9	88.9	15.5	i	1.21
CCN1CCN(C(=O)c2ccc(CN(c3ccccc3)S(=O)(=O)c3ccccc3)cc2)CC1	-0.8	-14.3	150.5	112.5	-3.3	i	0.72
COC(=O)C1=C(C(=O)c2ccccc2)C(c2ccc(OC)c(OC)c2)Nc2nnnn21 (centres undefined)	-0.8	5.6	87.0	94.2	-5.4	·	·
O=C(/C(C=Nc1cccc(C(F)(F)F)c1)=C(/O)c1ccco1)C(F)(F)F	-1.6	-29.6	112.2	2.5*	-3.7	i	1.11
COc1cc(NC(=O)CSc2nnc3c(C)cc4c(C)ccc(C)c4n23)c(C(=O)O)cc1OC	·	·	·	103.5	-1.9	i	1.03
COc1ccccc1C(=O)Nc1nsc(-c2ccccc2)n1	·	·	·	94.2	·	i	0.96
CCOc1cc(CNCCc2ccccc2)ccc1OCC(=O)NC(C)(C)C	-0.7	·	·	136.7	9.4	i	0.98
CS(=O)(=O)N1CCN(C(=O)COc2ccc3ccccc3c2)CC1	·	·	·	101.6	·	i	0.92
O=c1c2cc(N3CCOCC3)ccc2[nH]c(=S)n1CCc1ccccc1	·	·	·	102.0	8.2	i	1.03
COC(=O)C(NC(=O)C(NC(=O)c1ccccc1)C(C)C)C(C)C (centres undefined)	-1.6	-48.3	47.2	89.2	-0.5	i	0.85
COc1ccc(-c2cnn3c(N)c(S(=O)(=O)C(C)(C)C)cnc23)cc1	-0.2	-16.7	74.3	103.9	-15.9	i	0.87
COc1ccc(NC(=O)NCc2ccco2)c(OC)c1	·	·	·	97.1	0.1	i	0.96
Cc1[nH]c(=O)nc2c1CCC2	·	-63.6	27.8	97.2	-5.7	i	1.15

The results go on:
Molecule	GALR2 ag	Insulin prom inh	Insulin prom inh cell count	RGS16-Gao	PKD1 inh	HSV replic up	HSV replic up primary fold
CCN(CC)C(=O)CN(c1ccc(F)c(Cl)c1)S(C)(=O)=O	-0.2	46.7	69.8	101.1	-5.9	i	1
CCn1nnnc1NC(=O)c1cc(Cl)c(OC)c(Cl)c1	·	13.3	114.0	110.2	6.4	i	1.08
O=c1[nH]c(=O)c2cc([N+](=O)[O-])cc([N+](=O)[O-])c2[nH]1	·	42.9	27.5	139.1	3.7	i	0.93
CCNC(=O)NC(=O)C(C)Oc1ccc(Br)cc1Br (centres undefined)	·	-22.2	84.1	105.2	3.2	i	0.97
C=CCOc1c(Cl)cc(CNc2ccc(N(C)C)cc2)cc1OC	-1.5	-26.7	79.6	82.9	5.6	i	0.69
COC(=O)c1cc(Br)c(=O)n(CCN2CCCCC2)c1	-0.9	·	·	179.3	0.4	i	1.06
CCOC(=O)N1CCN(CC(O)COCc2ccccc2)CC1 (centres undefined)	0.3	-29.7	125.0	97.6	-6.7	i	0.99
Cc1cnc(C(=O)Nc2ccccc2F)cn1	0.7	3.6	116.3	103.8	4.3	i	0.97
COc1cc(CNC2CCCCCC2)cc(OC)c1O	-2.7	-16.1	80.7	106.2	-0.9	i	1.12
CSc1ccc2[nH]c(=O)cc(C)c2c1	-2.2	·	·	93.5	-4.1	i	0.9
Cc1ccc(OCc2nc3ccccc3[nH]2)cc1	-1.9	27.3	129.6	136.9	-0.4	i	1.05
CCCOc1ccc(C(CC(=O)O)NC(=O)c2cccs2)cc1 (centres undefined)	-2.1	-92.9	113.4	98.8	-6.2	i	0.86
O=C(OC(C(=O)Nc1cccc(C(F)(F)F)c1)c1ccccc1)C1CCCCC1 (centres undefined)	-1.9	13.3	99.1	109.7	-1.3	i	0.92
Cc1ccc(S(=O)(=O)N2CCOCC2)c2nsnc12	-0.5	-3.7	112.4	95.5	2.6	i	1.02
Nc1ccc(C(=O)Nc2ccc3nc(-c4ccncc4)[nH]c3c2)cc1	·	-20.0	116.2	97.8	-8.4	i	0.96

An excerpt of these results, field by field:
> CCOC(=O)N1CCN(CC(O)COCc2ccccc2)CC1 (centres undefined)
  GALR2 ag: 0.3
  Insulin prom inh: -29.7
  Insulin prom inh cell count: 125.0
  RGS16-Gao: 97.6
  PKD1 inh: -6.7
  HSV replic up: i
  HSV replic up primary fold: 0.99

> Cc1cnc(C(=O)Nc2ccccc2F)cn1
  GALR2 ag: 0.7
  Insulin prom inh: 3.6
  Insulin prom inh cell count: 116.3
  RGS16-Gao: 103.8
  PKD1 inh: 4.3
  HSV replic up: i
  HSV replic up primary fold: 0.97

> COc1cc(CNC2CCCCCC2)cc(OC)c1O
  GALR2 ag: -2.7
  Insulin prom inh: -16.1
  Insulin prom inh cell count: 80.7
  RGS16-Gao: 106.2
  PKD1 inh: -0.9
  HSV replic up: i
  HSV replic up primary fold: 1.12

> CSc1ccc2[nH]c(=O)cc(C)c2c1
  GALR2 ag: -2.2
  Insulin prom inh: ·
  Insulin prom inh cell count: ·
  RGS16-Gao: 93.5
  PKD1 inh: -4.1
  HSV replic up: i
  HSV replic up primary fold: 0.9

Next compounds
Molecule	GALR2 ag	Insulin prom inh	Insulin prom inh cell count	RGS16-Gao	PKD1 inh	HSV replic up	HSV replic up primary fold
COCC(C)n1c(SCc2nc(N)nc(Nc3ccccc3C)n2)nc2ccccc2c1=O (centres undefined)	-0.8	-41.4	100.0	108.1	-8.0	i	0.75
CCOC(=O)N1CCN(C(=O)CN(C)S(=O)(=O)c2ccc(OC)c(OC)c2)CC1	-3.2	47.6	139.5	102.4	-5.1	i	0.95
O=C(/C=C/c1ccc(N2CCCCC2)c([N+](=O)[O-])c1)c1ccc(S(=O)(=O)N2CCCC2)cc1	-0.7	55.6	102.1	94.3	4.0	i	1
N#CC1CC(c2ccccc2)Nc2cc(Cl)ccc2N1 (centres undefined)	·	·	·	108.0	·	i	1.12
Cc1nc2oc3c(NCc4ccccn4)ncnc3c2c2c1COC(C)(C)C2	1.5	40.6	109.4	102.4	-7.6	i	0.83

Compound activity as filed in PubChem.

Rows were taken by chance; overall some 1.3% were active at least once.
